# KCNQ2 inh: KCNQ2 potassium channel inhibitors, primary screen, cell-based, CHO-K1, FluxOR thallium flux, B-score (AID 2156); 20 min; active compounds read low; only compounds with negative scores are shown here; some inactives read as strong as hits; B-score at 10 µM; actives 1.1% (n = 310,000);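 active = fluorescence ratio B-score at most minus 3 library SDs, with starting brightness B-score within 2 library SDs, cut at about -5.5 in these data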
# Target sequence (O88943 whole entry, looked up): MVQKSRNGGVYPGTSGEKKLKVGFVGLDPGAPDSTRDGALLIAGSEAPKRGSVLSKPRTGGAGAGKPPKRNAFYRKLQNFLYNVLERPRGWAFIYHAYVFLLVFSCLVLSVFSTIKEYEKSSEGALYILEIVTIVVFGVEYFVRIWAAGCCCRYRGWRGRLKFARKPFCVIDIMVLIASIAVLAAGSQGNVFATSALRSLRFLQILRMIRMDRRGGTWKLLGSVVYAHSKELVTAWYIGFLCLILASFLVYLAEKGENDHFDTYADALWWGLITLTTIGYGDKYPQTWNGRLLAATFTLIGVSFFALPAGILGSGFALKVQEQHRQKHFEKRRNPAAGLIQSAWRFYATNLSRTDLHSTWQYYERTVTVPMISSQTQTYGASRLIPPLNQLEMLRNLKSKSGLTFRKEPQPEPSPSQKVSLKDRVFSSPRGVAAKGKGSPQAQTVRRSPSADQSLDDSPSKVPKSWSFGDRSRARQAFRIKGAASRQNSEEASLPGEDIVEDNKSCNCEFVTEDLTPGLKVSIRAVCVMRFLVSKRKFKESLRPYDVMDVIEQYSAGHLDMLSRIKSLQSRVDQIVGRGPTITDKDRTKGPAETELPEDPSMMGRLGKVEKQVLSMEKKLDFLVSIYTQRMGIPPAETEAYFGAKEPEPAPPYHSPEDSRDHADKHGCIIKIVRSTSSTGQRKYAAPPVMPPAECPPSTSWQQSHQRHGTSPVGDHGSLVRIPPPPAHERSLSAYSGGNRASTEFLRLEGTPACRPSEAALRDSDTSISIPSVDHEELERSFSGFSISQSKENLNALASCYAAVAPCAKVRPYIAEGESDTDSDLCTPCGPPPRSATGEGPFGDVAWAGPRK
# KCNQ2 inh baseline: recorded beside KCNQ2 inh, whose call it bears; B-score; measured here: initial fluorescence intensity artifact check;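 brightness before thallium and not channel activity; 0 = typical well and far values either way flag optical interference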
# An asterisk follows results filed as active; i = inactive.
mol	KCNQ2 inh	KCNQ2 inh baseline
O=C(NCC1CCCO1)C1CCN(S(=O)(=O)c2cccc3nonc23)CC1 (stereo not drawn)	i	-0.99
O=C(N/N=C/c1ccc(OC(F)F)cc1OC(F)F)c1ccc(Br)cc1	i	1.97
Clc1ccc(OCc2nn3c(-c4ccco4)nnc3s2)cc1	i	-0.05
COc1ccccc1CNC(=O)c1sccc1-c1ccccc1	i	-0.62
CCN(CC)c1ccc(/C=N/N2CCOCC2)c(O)c1	i	-0.07
O=C(O)c1ccccc1C(=O)NCc1ccc2c(c1)OCO2	i	-0.77
CC(=O)NC(CCCN1C(=O)c2ccccc2C1=O)c1nnn(C)n1 (stereo not drawn)	i	-1.33
Cc1ccc(S(=O)(=O)Oc2ccc3ccc(O)cc3c2)cc1	i	-1.4
CC(C)CCNC(=O)C1CCN(S(=O)(=O)c2ccc3nc4c(c(C(=O)O)c3c2)CCCCC4)CC1	i	0.61
COc1ccc(CCNC(=O)c2cnc(Cl)c(Cl)c2)cc1	i	-0.03
COc1ccc2nc(SCC(=O)Nc3ccccc3C)[nH]c2c1	i	0.62
CC1CCCCN1C(=O)Nc1ccccc1Cl (stereo not drawn)	i	0.32
COc1cccc(OC)c1OCCOCCn1cnc2ccccc2c1=O	i	-1.98
CCc1ccccc1-n1ncc(C(=O)Nc2ccccc2OC)c1C	i	-0.85
Cc1ccc(NC(=O)N2CCCn3c(SCC(=O)c4ccccc4)nnc32)cc1	i	1.07
CC(C)C1/C(=N/O)CC(c2ccccc2)NC1c1ccccc1 (stereo not drawn)	i	-1.35
COc1ccc(CCNC(=O)C23CN(Cc4ccccc4)CC2C(c2ccc([N+](=O)[O-])cc2)=NO3)cc1 (stereo not drawn)	i	-0.03
CCNS(=O)(=O)c1ccc(NC(=O)c2ccccc2OCC)cc1	i	-0.23
COc1cccc(CC2(CO)CCN(C(=O)NCCc3ccccc3)CC2)c1	i	-0.1
O=C(CC(SCCO)c1ccc2c(c1)OCO2)c1cccs1 (stereo not drawn)	i	-0.47
O=C(/C=C/c1c(F)cccc1Cl)c1ccc(O)cc1	i	-0.7
COc1ccc(C2CC(C(F)(F)F)n3nc(C(=O)O)c(Br)c3N2)cc1 (stereo not drawn)	i	-0.98
CCOCC(=O)Nc1sc2c(c1C(=O)OCC)CCCC2	i	0.1
CC(C)(C)OC(=O)NCCCCCNC(=O)c1[nH]cnc1C(=O)N[C@@H](CCCCNC(=O)OC(C)(C)C)C(=O)OC(C)(C)C	i	0.47

# The closing 5 records of the section above are carried over, then new ones follow.
mol	KCNQ2 inh	KCNQ2 inh baseline
O=C(CC(SCCO)c1ccc2c(c1)OCO2)c1cccs1 (stereo not drawn)	i	-0.47
O=C(/C=C/c1c(F)cccc1Cl)c1ccc(O)cc1	i	-0.7
COc1ccc(C2CC(C(F)(F)F)n3nc(C(=O)O)c(Br)c3N2)cc1 (stereo not drawn)	i	-0.98
CCOCC(=O)Nc1sc2c(c1C(=O)OCC)CCCC2	i	0.1
CC(C)(C)OC(=O)NCCCCCNC(=O)c1[nH]cnc1C(=O)N[C@@H](CCCCNC(=O)OC(C)(C)C)C(=O)OC(C)(C)C	i	0.47
O=C1NC2(CCCCC2)Oc2ccccc21	i	-1.8
Cc1c(NC(=O)CN2C(=O)C3C4C=CC(C4)C3C2=O)c(=O)n(-c2ccccc2)n1C (stereo not drawn)	i	0.17
CCn1c(SCC(=O)Nc2ccc(NC(C)=O)cc2)nc2c([nH]c3ccccc32)c1=O	i	0.72
Cc1cc(C)nc(SCC(=O)N2CCCCC2)n1	i	0.52
Cc1ccc(-c2nc3ccccc3s2)cc1S(=O)(=O)N1CCCC1	i	-0.96
CCN1CCN(C(c2cccs2)C(C)NC(=O)c2ccco2)CC1 (stereo not drawn)	i	-0.01
O=C(c1ccc(Cl)nc1)N1CCN(S(=O)(=O)c2ccccc2)CC1	i	-0.33
COc1ccc(CCNCc2cc(C)n(-c3ccc(OC)cc3)c2C)cc1	i	-2.26
COc1ccc(C2c3c(ncn(CCN4CCOCC4)c3=N)Oc3ccc4ccccc4c32)cc1OC (stereo not drawn)	i	1.97
CCn1cc(/C=N\NC(=O)c2ccc(Cl)cc2)cn1	i	0.08
C/C(=N\OCC(=O)Nc1nc2ccccc2s1)c1ccccc1	i	-1.91
NS(=O)(=O)c1ccc(CNc2ccc3ccccc3n2)cc1	i	-1.16
Cc1ccc(NC(=O)Nc2ccccc2)cc1[N+](=O)[O-]	i	-1.63
CC1CCC(=C(C#N)c2nc(-c3cc4ccccc4oc3=O)cs2)CC1 (stereo not drawn)	-8.52*	-1.28*
Cc1ccc(CNc2oc(-c3ccco3)nc2C#N)cc1	i	-0.25
COc1ccc(NC(=S)Nc2ccc3nc(C)c(C)nc3c2)cc1	i	1.18
O=C(N/N=C/c1ccc(Cl)cc1)c1cc2c(s1)-c1ccccc1CC2	i	0.22
CCOc1cc(C2NC(=O)NC(c3ccccc3)=C2C(C)=O)ccc1OC(C)=O (stereo not drawn)	i	1.64
CCOc1ccc2nc3c(cc2c1)CN(CCCO)C(=NCCOC)S3	i	-0.86
NS(=O)(=O)c1ccc(CNC(=O)c2cc(-c3cccnc3)nc3ccc(Br)cc23)cc1	i	-1.13
CCCn1c(SCC(=O)c2ccc3c(c2)OCCO3)nnc1-c1ccco1	i	0.38
O=C(Nc1ccccc1C(=O)NCCCN1CCOCC1)c1ccc(Cl)cc1	i	2.46
CC(C(=O)NCc1ccccn1)c1ccc([N+](=O)[O-])cc1 (stereo not drawn)	i	1.08
CCC(=O)O[C@]1(C(=O)CCl)[C@@H](C)C[C@H]2[C@@H]3CCC4=CC(=O)C=C[C@]4(C)[C@@]3(F)[C@@H](O)C[C@@]21C	i	1.42
O=C(CCC(=O)c1cccs1)NCc1ccccc1	i	0.6
Cc1ccc(-c2nnc(SCC(=O)N3CC(C)CC(C)C3)o2)cc1C (stereo not drawn)	i	-2.54
COc1ccc(Cl)cc1NC(=O)CN1CCCCCC1	i	1.35
COc1ccccc1C1CCN(Cc2ccc(C)cc2)CC1	i	-0.61
Cc1nn(C2CCS(=O)(=O)C2)c(Cl)c1/C=C/C(=O)OCC(=O)c1cc(C)n(-c2ccc(F)cc2)c1C (stereo not drawn)	i	1.68
COC(=O)CCC(=O)OC1(C)C(=O)C=C2C=C(C3CC3)N(Cc3ccc(OC)cc3)C=C2C1=O (stereo not drawn)	i	-0.38
CCNc1nc(C(=O)O)nc(N2CCOCC2)n1	i	0.86
COc1ccc(N2CCN(C(=O)CCC(=O)N3CC(C)Oc4ccccc43)CC2)cc1 (stereo not drawn)	i	0.31
COc1ccc(C(C)=O)cc1CN1C(=O)NC2(CCCCCC2)C1=O	i	-0.05
Cc1ccc(C(=O)O)cc1N1C(=O)c2cccc3c([N+](=O)[O-])ccc(c23)C1=O	i	1.12
Cc1cc(N2CCN(S(=O)(=O)c3ccc(Cl)c(Cl)c3)CC2)c2ccccc2n1	i	0.24
Cn1cc(CNCC2CCCO2)c(-c2ccc(Oc3ccccc3)cc2)n1 (stereo not drawn)	i	0.42
CC(C)C[C@H](NC(=O)N1CC(=O)Nc2ccccc21)C(=O)N[C@@H](Cc1ccccc1)C(=O)O	i	0.76
COc1ccc(CN=C2NN=C(c3cccc(OC)c3)CS2)cc1	i	-0.02
Cc1cc(Br)ccc1NC(=O)CN(C)Cc1cccs1	i	-0.45
Cc1cc(OCCn2ccnc2)cc(C(C)C)c1	i	2.3
CCCOc1ccc(-c2nc(N3CCN(C)CC3)c3ccccc3n2)cc1	-6.67*	0.76*
COc1cc(C2NC(=O)NC(C)=C2C(C)=O)ccc1O (stereo not drawn)	i	0.06
CS(=O)(=O)c1ccc(Cl)c(NC(=O)COC(=O)CNC(=O)c2ccc3ccccc3c2)c1	i	-1.32
N#Cc1cccc(-n2c(-c3ccccc3)nnc2-c2ccccc2)c1C#N	i	0.13
c1ccc(Cn2c(NCc3ccco3)nc3ccccc32)cc1	i	-1.37
COCCCNC(NC(=O)c1ccc(Br)cc1)C(Cl)(Cl)Cl (stereo not drawn)	i	-0.13
Cc1ccc(SC(=O)c2c([N+](=O)[O-])c(C)nn2C)cc1	-5.9*	-1.62*
CC1Cc2nc(SCC(=O)N3CCCc4ccccc43)n(C)c(=O)c2S1 (stereo not drawn)	i	0.82
O=C(c1ccc(Cn2cnnn2)cc1)N1CCCC(Nc2ccc(F)c(F)c2)C1 (stereo not drawn)	i	-0.75
O=C(Nc1ccc(C(F)(F)F)cc1-c1ccccc1)c1ccccc1	i	-0.28
CN(C)CCCNC(=O)/C(=C\C=C\c1ccccc1)NC(=O)c1ccc([N+](=O)[O-])cc1	i	1.34
Cc1sc2ncnc(N3CCC(C(=O)NNC(=O)COc4ccccc4Cl)CC3)c2c1C	i	1.63
Cc1ccc(Cn2c(CN(C)Cc3ccccc3)nc3c2c(=O)n(C)c(=O)n3C)cc1	i	1.73
COc1ccc(C2CC2/C(=N/O)c2ccccn2)cc1 (stereo not drawn)	i	1.82
Cc1ccc(-c2c[n+](CC(=O)OCc3ccccc3)c3n2CCC3)cc1	i	1.07
CCOc1ccccc1CN1CCCC(CNS(=O)(=O)c2ccc(OC)cc2)C1 (stereo not drawn)	i	0.38

# (continued)
mol	KCNQ2 inh	KCNQ2 inh baseline
COc1ccc(NCC(=O)N/N=C/c2ccc3c(c2)OCCO3)cc1	i	1.39
COc1cccc(NC(=O)CN(C)C(=O)c2ccc(N3CCOCC3)c([N+](=O)[O-])c2)c1	i	-0.09
Oc1ccc(CN2CCN(Cc3ccccc3)CC2)c2cccnc12	i	-0.58
O=C(Cc1ccccc1)NCC(=O)OCC(=O)c1ccc(OC(=O)c2ccccc2)cc1	i	0.01
CCOC(=O)C1=NNC2C(=O)N(CC)C(=O)C12 (stereo not drawn)	i	2.21
O=C(C1=C[C@H](c2ccc(C(F)(F)F)cc2)C[C@H](OCc2ccc(CO)cc2)O1)N1CCN(Cc2ccc3c(c2)OCO3)CC1	i	-0.84
O=C(OCc1ccccc1)/C(=C(\O)c1ccccc1Br)c1ccc(-c2ccccc2)cn1	i	-0.26
CCc1[nH]nc2c1C(c1cccc(OC(=O)N3CCOCC3)c1)C(C#N)=C(N)O2 (stereo not drawn)	i	-0.73

# An excerpt from above in order of heavy-atom count, descending:
mol	KCNQ2 inh	KCNQ2 inh baseline
CCOc1cc(C2NC(=O)NC(c3ccccc3)=C2C(C)=O)ccc1OC(C)=O (stereo not drawn)	i	1.64
CC(=O)NC(CCCN1C(=O)c2ccccc2C1=O)c1nnn(C)n1 (stereo not drawn)	i	-1.33
COc1ccc(CCNC(=O)c2cnc(Cl)c(Cl)c2)cc1	i	-0.03
Cc1cc(Br)ccc1NC(=O)CN(C)Cc1cccs1	i	-0.45
O=C(CCC(=O)c1cccs1)NCc1ccccc1	i	0.6

# Continued:
mol	KCNQ2 inh	KCNQ2 inh baseline
S=C(NCCN1CCOCC1)N1CCN(c2cccc(Cl)c2)CC1	i	-0.38
CCOC(=O)c1oc2ccc(S(=O)(=O)n3nc(-c4ccc(Cl)cc4)cc3N)cc2c1C	i	-0.26
Nn1c(Cc2ccccc2)nc2cc(Cl)ccc2c1=O	i	-0.91
Cc1ccc(N(CC(=O)NCc2ccc(F)cc2)C(=O)c2snc(C(N)=O)c2N)cc1C	i	-0.65
COc1ccc(S(=O)(=O)N(C)c2ccc(C(=O)Nc3ccccc3C(=O)N3CCOCC3)cc2)cc1	i	2.43
COc1ccc(S(=O)(=O)N2CCN=C2SCc2cccc(F)c2)cc1	i	-1.48
O=C(/C=C/c1ccccc1Cl)N(c1ccccn1)C1CCCCC1	-7.44*	1.55*
Cc1c(C(=O)NCCN2CCOCC2)oc2ccccc12	i	0.21
O=C(CNS(=O)(=O)c1ccc(Br)cc1)NC1CCCC1	i	-1.64
CCc1ccc(NC(=O)CCN2C(=O)c3cccnc3C2=O)cc1	i	2.59
Cc1ccsc1C(=O)NNC(=O)CCN1CCN(c2ccccc2)CC1	i	1.06
CC1CCC(NC(=O)c2ccc(NC(=O)CC3SC(N4CCCC4)=NC3=O)cc2)CC1 (stereo not drawn)	i	1.91
O=S(=O)(NC1c2cccc3cccc(c23)C1N1CCNCC1)c1ccccc1 (stereo not drawn)	i	2.59
COC(=O)c1cc(OC)nc2ccc(Br)cc12	i	-0.3
C[N+](C)(CC#Cc1ccccc1)CC(=O)c1ccccc1	i	0.54
COc1ccccc1N1CCN(C(=O)CCC(=O)N2CCN(c3ccccc3OC)CC2)CC1	i	-0.41
Cc1ccc(N(C(=O)c2ccc(Br)o2)C2C=CS(=O)(=O)C2)cc1 (stereo not drawn)	i	-0.59
CN(CC(=O)Nc1ccc(N2CCOCC2)cc1)C(=O)c1cc(S(=O)(=O)N(C)C)ccc1Cl	i	-0.16
COc1ccccc1NC(=O)CSc1nc2sc(C)c(C)c2c(=O)n1Cc1ccco1	i	-1.14
O=C(Cn1cnc2c(nnn2Cc2ccc(F)cc2)c1=O)NCc1ccc2c(c1)OCO2	i	-0.01
CCc1nn(CCCC(=O)Nc2ccc(C)cc2C)c(=O)c2cc3occc3n12	i	-0.69
c1cncc(-c2nc(N3CCOCC3)c3c4c(sc3n2)CCC4)c1	i	0.1
Nc1c2c(nc3ccc(Br)cc13)N(C1CCCCC1)CC2	-5.85*	-0.23*
CCCOC(=S)Nc1ccccc1	i	-1.03
CCCn1c(SCC(=O)OCc2ccccc2)nc2c1c(=O)n(C)c(=O)n2C	i	0.58
CC(C)Oc1ccc(C(=O)Nc2ccc(NC(=O)c3ccco3)c(Cl)c2)cc1	i	-0.43
O=C(O)c1nn(CC(=O)N2CCCCCC2)c(=O)c2ccccc12	i	-0.58

# Screening results (PubChem BioAssay)

# A portion of the library (hit frequency here may not be typical).
